MT1-MMP act inh – blockers of MT1-MMP proenzyme processing, primary screen, HT1080 RFP-PRO-GFP cells, GFP/RFP fluorescence; Matrix metalloproteinase-14 (Homo sapiens), P50281; AID 651647, 2012; 0.061% of 360,000 active; GFP/RFP ratio fluorescence, overnight; percent of plate control window, DMSO zero; GFP/RFP ratio change, % at 20 µM;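 active = GFP/RFP ratio change of at least 30% with cell ATP level not reduced by more than half and red fluorescence within 50% of control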; note: strong numbers were not always called active
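Compound: 20 µM single dose, 1% DMSO / System: HT1080 RFP-PRO-GFP cells / Controls: DMSO and RFP-L50D-GFP cell wells / Read-out basis: GFP/RFP fluorescence ratio / Schedule: overnight compound exposure at 37 °C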
CSC inhib – cancer stem cell viability inhibitors, primary screen, luminescence; inhibition, % at 7.5 µM; 1.1% of 300,000 active; cancer stem cell-like cells viability;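 active = mean at 75% or more and at least half the replicates too; inconclusive = mean and replicates disagree; tested in HMLE shEcad cells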;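 note: 0% = median of negative and 100% = median of positive control wells; the first replicate is given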
HIV Env fusion – inhibitors of HIV-1 Env-driven cell-cell fusion, primary screen, HeLa-JRFL effector, CEM21 target cells, luciferase. 1.1% of 360,000 active. AID 651610, 2012. inhibition, % at 12.3 µM;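 active = mean replicate inhibition score of at least 50 and every replicate individually at or above 50; inconclusive = only one of the two criteria met; inactive = mean below 50 and not all replicates reaching 50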;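 note: 0% = plate neutral controls and 100% = maraviroc near 300 nM; one replicate is shown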
Rce1 inh – yeast Rce1p protease inhibitors, primary screen, biochemical, fluorescence, cell-free homogeneous; yeast membranes, quenched prenylated peptide cleavage fluorescence; calls only; 0.27% of 290,000 active; AID 2563, 2010;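 active = fall in fluorescence gain of 50% or more versus controls, with final raw signal at or below 3038400; inconclusive = same 50% fall but final raw signal above 3038400; inactive = fall in fluorescence gain under 50%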;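 note: plate controls were neutral control wells for no effect and wells lacking membranes for full effect; tested at 10 µM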
Target sequence (Q03530 whole entry, looked up): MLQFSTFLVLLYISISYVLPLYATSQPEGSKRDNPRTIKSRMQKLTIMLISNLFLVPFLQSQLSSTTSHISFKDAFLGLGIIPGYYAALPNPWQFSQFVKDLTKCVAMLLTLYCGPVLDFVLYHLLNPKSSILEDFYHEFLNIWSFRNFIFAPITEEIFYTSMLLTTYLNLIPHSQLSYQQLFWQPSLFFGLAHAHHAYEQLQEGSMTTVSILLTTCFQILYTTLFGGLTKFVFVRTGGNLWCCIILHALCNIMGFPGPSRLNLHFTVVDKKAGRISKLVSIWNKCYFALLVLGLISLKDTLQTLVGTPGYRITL
Yeast UUG start – modulators of yeast start codon fidelity, primary screen, whole organism, S. cerevisiae, single point, plate reader; AID 602363, 2012; S. cerevisiae UUG-firefly luciferase reporter, luminescence/redox ratio; 0.13% of 350,000 active; activity score, % at 18.7 µM;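 active = replicate mean at a twofold rise or more, about +100% in these data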;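 note: firefly luciferase made from a UUG start codon reports start codon fidelity; reporter light over untreated wells divided by growth signal over untreated wells; some hits fall short of that in this replicate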
PABP polyA inh – PABP poly(A) RNA binding inhibitors, primary screen, biochemical, fluorescence polarization, uHTS. AID 2014, 2009. inhibition, % at 35 µM. Polyadenylate-binding protein 1 (Homo sapiens), P11940. 1% of 290,000 active;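 active = 50% or more with normal probe brightness, or confirmed in later tests; inconclusive = above 50% with abnormal brightness, or retests that disagree; inactive = below 50% or failed in later tests; about a fifth of its hits are not listed in these tables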;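 note: calls also rest on retests at 20 µM and on dose response follow-up; controls were probe without protein and protein plus probe with vehicle; some compounds called inactive have numbers as strong as hits; many hits fall short of the cut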
Target sequence (P11940 whole entry, looked up): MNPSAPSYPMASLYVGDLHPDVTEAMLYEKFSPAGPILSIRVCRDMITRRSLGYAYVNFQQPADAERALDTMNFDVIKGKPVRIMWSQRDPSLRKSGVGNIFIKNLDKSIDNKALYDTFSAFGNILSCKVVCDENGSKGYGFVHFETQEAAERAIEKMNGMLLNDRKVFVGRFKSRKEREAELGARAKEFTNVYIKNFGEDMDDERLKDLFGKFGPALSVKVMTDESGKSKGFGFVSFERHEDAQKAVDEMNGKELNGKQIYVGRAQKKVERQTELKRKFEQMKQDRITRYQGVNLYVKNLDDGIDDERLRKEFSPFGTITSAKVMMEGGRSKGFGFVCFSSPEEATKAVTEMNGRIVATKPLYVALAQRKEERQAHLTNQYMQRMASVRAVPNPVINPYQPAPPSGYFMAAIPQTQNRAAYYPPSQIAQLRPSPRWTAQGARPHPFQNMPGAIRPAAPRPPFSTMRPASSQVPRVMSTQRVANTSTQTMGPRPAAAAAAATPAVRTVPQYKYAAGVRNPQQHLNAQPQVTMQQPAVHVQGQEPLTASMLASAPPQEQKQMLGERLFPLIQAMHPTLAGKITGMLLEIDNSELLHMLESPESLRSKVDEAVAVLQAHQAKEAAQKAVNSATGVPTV
eIF4H inh – human eIF4H binding inhibitors, primary screen, translation initiation inhibitor project, biochemical, uHTS, fluorescence polarization | Eukaryotic translation initiation factor 4H (Homo sapiens), Q15056 | eIF4H fluorescence polarization binding assay | inhibition, % at 35 µM | 0.94% of 290,000 active;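 active = 50% or more with normal probe brightness, or confirmed in later tests; inconclusive = above 50% with abnormal brightness, or retests that disagree; inactive = below 50% or failed in later tests; about a fifth of its hits are not listed in these tables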;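 note: calls also rest on retests at 20 µM and on dose response follow-up; 0% = protein and probe with vehicle and 100% = probe without protein; strong numbers were not always called active; many hits fall short of the cut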
eIF4H inh retest – further read-out of eIF4H inh, marked with its call; inhibition, %; compound at 20 µM; confirmation average;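 mean of two retest wells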
PABP polyA inh retest – recorded beside PABP polyA inh, whose call it bears; inhibition, %; compound at 20 µM; confirmation repeats;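 mean of two retest wells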
MT1-MMP act inh RFP – second read-out of MT1-MMP act inh, no call of its own (marks repeat the call); RFP signal change, %; measured here: RFP expression control read;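 0 = vehicle wells; hits needed this value within 50% of zero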
An asterisk follows results filed as active; i = inactive; ? = inconclusive; · = no result given. Not all compounds are listed; rates above refer to the full screens.

SMILES	MT1-MMP act inh	MT1-MMP act inh RFP	CSC inhib	HIV Env fusion	Rce1 inh	Yeast UUG start	PABP polyA inh	eIF4H inh	others
CCOC(=O)C(=CNc1cc(C)nn1C(C)(C)C)C(=O)OCC	2	3	14	-35	i	-3	-1	-3
COc1ccc(NC(=O)Nc2nnc(Cc3ccccc3)s2)cc1	9	3	16	-36	i	-4	5	8
O=C(NCC(O)c1ccccc1)c1cccs1 (stereo not drawn)	-6	-1	·	-23	i	-15	2	0
Cc1cccc([C@H]2[C@@H]3C=CCC[C@@H]3C(=O)N2Cc2ccccc2)c1	-2	-5	·	-23	·	-5	·	·
C=CCNC(=O)NC(=O)CSc1nnc(C(F)(F)F)n1C	5	5	-12	5	i	-8	-4	5
CCOC(=O)C(Cc1ccc(Cl)cc1Cl)c1ccno1 (stereo not drawn)	-3	-1	-4	4	i	·	-11	4
COc1ccccc1N1CCN(C(=O)CN2C(=O)c3ccccc3S2(=O)=O)CC1	-12	1	-8	8	i	4	-2	-10
Cn1c(=O)c(C(=O)NNC(=O)c2ccccc2F)c(O)c2ccccc21	-1	4	·	14	i	-8	9	18
CN(C)c1nc(Cl)cc(N2CCOCC2)n1	1	3	-1	-97	i	-8	-3	-5
CN(C)C(=S)Oc1ccccc1-c1ccccc1OC(=S)N(C)C	-1	-1	30	3	i	-11	4	0
CC(=O)c1c(N2CCOCC2)nc2ccc(Br)cc2c1-c1ccccc1	-1	-7	3	11	i	1	-2	5
CC(C)Cn1c(-c2csc(C(C)C)c2)n[nH]c1=S	0	-2	9	-4	i	-23	13	1
COc1ccc(NC(=O)CN(C)C(=O)CSc2ccc(Br)cc2)cc1	-3	-4	-3	0	·	-9	·	·
COC(=O)C(C)n1cnc2c(nnn2-c2ccc(OC)cc2)c1=O (stereo not drawn)	5	3	-10	-38	i	-12	-6	-8
COc1ccc(/C=C2\OC(=S)N(C)C2=O)cc1	5	0	-7	·	i	-19	0	6
Cc1c(-c2ccccc2)nc2ccccc2c1C(=O)OCC(=O)Nc1ncc(C(F)(F)F)cc1Cl	-6	0	25	17	i	·	-2	-6
Cc1ccc(NC(=O)CCN2C(=O)c3ccccc3C2=O)cc1	1	6	-8	-42	i	-2	-7	-9
COc1ccccc1OCCCCOc1ccccc1F	1	-1	0	·	i	-23	3	-3
Cc1nnc(NC(=O)CSC2CCCCC2)s1	2	3	-13	8	i	16	1	-7
CCN(CC)S(=O)(=O)c1ccc(NC(=O)C(C)N(c2ccccc2)S(C)(=O)=O)cc1 (stereo not drawn)	1	-1	·	·	i	6	-1	-11
CCOc1ccccc1N(C(=O)Nc1ccc(Cl)cc1)C1=NC(C)CS1 (stereo not drawn)	2	-2	56	-9	i	·	-3	-4
CCCNC(=O)C1(C)CCN(C(=O)c2oc3ccccc3c2C)C1 (stereo not drawn)	-2	4	·	10	·	-6	·	·
Cc1cccc(-c2noc(C3CCCCC3)n2)c1	9	-1	-8	-149	i	-15	7	4
C=CCCCOc1ccc(C(=O)O)cc1	-2	3	4	18	i	-14	5	-8
O=C1CSc2ccc(C(=O)Nc3cccc(S(=O)(=O)Nc4ccc(Br)cc4)c3)cc2N1	-3	-27	87*	43	i	·	-3	-4
COc1ccccc1CNC(=O)c1ccncc1	0	2	-14	11	i	-2	5	-9
COC(=O)C1=C(C)N(CCc2ccccc2)C(=O)C1(NS(=O)(=O)c1ccc(NC(C)=O)cc1)C(F)(F)F (stereo not drawn)	3	2	17	·	i	2	1	0
O=C1C2C3C=CC(CC3)C2C(=O)N1/N=C/c1ccccc1O (stereo not drawn)	0	1	19	-31	i	-23	0	2
COc1ccc(-c2nc(CSCC(=O)NC3CCCC3)c(C)o2)cc1OC	9	1	-9	7	i	·	2	-7
COc1cccc2sc3cc(NCc4ccc(C)o4)ccc3c(=O)c12	3	1	-2	1	·	-13	·	·
COc1ccc(NC(=O)CSc2nc(C)cc(C)n2)c([N+](=O)[O-])c1	2	2	·	1	i	·	-10	-9
S=C(Nc1cccnc1)NC1CCCC1	-2	1	-2	13	i	-11	1	7
CC(=O)Oc1ccc(/C=C/c2nc3ccccc3c(=O)o2)cc1	4	-1	-8	7	i	-20	6	-10
CCOC(=O)c1[nH]c(C)c(C(=O)OCc2c(C)noc2C)c1C	3	0	51	·	i	-8	0	-15
O=C(Nc1ccccc1)C1Cc2c(-c3ccc(Cl)cc3)ccnc2O1 (stereo not drawn)	0	-7	·	15	·	-12	·	·
Cc1cc(C)n2nc(C(=O)OC(C)C(=O)c3cc(C)c(C)cc3C)nc2n1 (stereo not drawn)	1	2	-5	-4	i	-13	·	·
Fc1ccccc1CNc1ccc(Cl)cc1	-7	0	18	·	i	-9	3	5
C/C(=N\O)c1cc(Cl)ccc1O	-5	1	-11	-29	i	-7	4	-2
O=C1CCCC2=C1C1(CCCCC1)N=C(Nc1nc3ccccc3o1)N2	-43	-36	-5	-81	i	·	10	4
CCOc1ccc2nc(N3CCCC(C(=O)NCC4CCCO4)C3)sc2c1 (stereo not drawn)	5	10	-20	-39	i	·	-7	-9
O=C(c1cnc2ccc3ccccc3c2c1)c1cc(F)ccc1O	-7	-13	84*	34	i	·	-2	-2
Cn1nccc1C(=O)Nc1cccc(S(=O)(=O)N2CCOCC2)c1	0	2	-21	-17	i	4	2	6
CNc1nc(-c2ccccn2)nnc1-c1ccccc1	1	-3	23	·	i	-33	-5	4
O=[N+]([O-])c1cccnc1-n1cnc2ccccc21	0	2	·	12	i	·	-1	46
COc1ccccc1NC(=O)CSc1nc2ccccc2c(=O)n1C	-2	-26	3	28	i	-8	6	5
COc1ccc(OC)c(NC(=O)Nc2nnc([C@@H]3O[C@H](CO)[C@@H](O)[C@H]3O)s2)c1	7	5	·	-7	·	-5	·	·
CC1CCCC(NC(=O)CSc2cccc[n+]2[O-])C1C (stereo not drawn)	3	2	-15	·	·	-5	·	·
CC(=O)N1CCN(C(=O)c2ccc(NS(=O)(=O)c3ccc(Cl)c(Cl)c3)cc2)CC1	2	-3	·	0	·	-8	·	·
CC(C)CN(C(=O)CN1CCN(c2ccc([N+](=O)[O-])cc2)CC1)c1c(N)n(CC(C)C)c(=O)[nH]c1=O	5	0	8	-11	i	-6	-2	-8
Cc1cccc(C)c1NC(=O)Cn1nnc(-c2ccc(CN3CCC(C)CC3)cc2)n1	-6	-4	-2	-2	i	-17	0	-3
O=C(O)CC/C(=C\c1ccccc1[N+](=O)[O-])c1nc2ccccc2s1	4	2	9	-5	i	10	-10	0
Cc1cc(C(=O)OCC(=O)NC2CCCC2)c2ccccc2n1	0	0	·	-3	·	-9	·	·
Cn1c(=O)n(CCN2CCOCC2)c(=O)c2c1nc1n2CCN1c1ccc(Oc2ccccc2)cc1	5	-1	·	-39	·	-2	0	-3
Cc1cc(NC(=O)c2ccc(N(C)S(=O)(=O)c3ccccc3)cc2)no1	3	-4	-12	23	i	-17	-16	-9
CCN(C(=O)COC(=O)CCC(=O)c1ccccc1)c1c(N)n(Cc2ccccc2)c(=O)[nH]c1=O	5	4	3	·	·	-11	·	·
CC(C)CC(c1nnnn1Cc1ccco1)N1CCN(c2cccc(Cl)c2)CC1 (stereo not drawn)	-28	-20	110*	·	i	-10	-2	-8
COc1ccccc1N1CCN(C(=O)C(Cc2ccccc2)NC(=O)C2CCCCC2)CC1 (stereo not drawn)	-5	-5	-1	14	i	12	4	10
COc1cc(S(=O)(=O)N(Cc2ccccn2)Cc2ccco2)ccc1-n1cnnn1	26	4	-2	·	i	11	6	3
O=C(Cn1cc(C(F)(F)F)ccc1=O)N/N=C/c1ccc(Cl)cc1	0	2	0	3	i	·	4	-5
Cc1cc(C)c2c(c1)/C(=C/C(=O)c1ccc(Br)s1)C(=O)N2	-38	-43	?	-56	i	-1	4	-2

Structural class: the compounds so far with a COOH group.
SMILES	MT1-MMP act inh	MT1-MMP act inh RFP	CSC inhib	HIV Env fusion	Rce1 inh	Yeast UUG start	PABP polyA inh	eIF4H inh	others
C=CCCCOc1ccc(C(=O)O)cc1	-2	3	4	18	i	-14	5	-8
O=C(O)CC/C(=C\c1ccccc1[N+](=O)[O-])c1nc2ccccc2s1	4	2	9	-5	i	10	-10	0

(continued)
SMILES	MT1-MMP act inh	MT1-MMP act inh RFP	CSC inhib	HIV Env fusion	Rce1 inh	Yeast UUG start	PABP polyA inh	eIF4H inh	others
Cc1ccc(NC(=O)CCNS(=O)(=O)c2ccc3[nH]c(=O)oc3c2)c(Cl)c1	-1	-2	2	-11	i	-15	7	13
O=C(CCc1nc2ccccc2c(=O)[nH]1)Nc1ccc(F)c([N+](=O)[O-])c1	-5	9	-8	1	i	·	2	16
Cc1cc(C)cc(NC(=O)CSc2nnc(-c3ccccc3C)o2)c1	1	-1	0	-185	i	-14	-4	-3
COC(=O)[C@H](CCSC)NC(=O)Nc1ccc(C)cc1C	2	0	·	10	i	-11	-6	-6
CN(c1ccccc1)S(=O)(=O)c1cccc(Cl)c1Cl	-1	-2	0	4	i	·	3	-9
Cc1ccc(/C=C/C(=O)O)cc1S(=O)(=O)NCc1cccnc1	0	1	-10	-23	i	-2	-7	-4
COc1ccc(C(=O)Cn2c(Cl)nc3c2c(=O)n(C)c(=O)n3C)cc1	5	-9	4	11	i	-10	-13	6
CCOC(=O)N1CCC(NC(=O)CCCN2C(=O)CSc3ncccc32)CC1	1	4	·	·	i	9	-14	2
COc1ccccc1CC(=O)NCc1csc(-c2cccs2)n1	5	1	-8	-17	i	-5	-2	-4
C=CC[C@H](CC(=O)NCCO)C(=O)N[C@@H](C)COC(=O)[C@H](CC=C)CC(=O)OC(C)(C)C	4	6	-15	13	·	-3	·	·
CC(C)=C1C2C=CC1C(C(=O)Nc1cc(C)ccc1C)C2C(=O)O (stereo not drawn)	-3	-2	-3	·	i	-2	4	-7
O=C1c2ccccc2NC(c2ccccn2)N1NS(=O)(=O)c1ccccc1 (stereo not drawn)	2	4	-8	-1	i	7	4	0

The final two compounds of the part before come first, to join the parts.
SMILES	MT1-MMP act inh	MT1-MMP act inh RFP	CSC inhib	HIV Env fusion	Rce1 inh	Yeast UUG start	PABP polyA inh	eIF4H inh	others
CC(C)=C1C2C=CC1C(C(=O)Nc1cc(C)ccc1C)C2C(=O)O (stereo not drawn)	-3	-2	-3	·	i	-2	4	-7
O=C1c2ccccc2NC(c2ccccn2)N1NS(=O)(=O)c1ccccc1 (stereo not drawn)	2	4	-8	-1	i	7	4	0
COc1cccc(Sc2ccccc2CN(C)C)c1	-4	1	-9	·	i	18	2	-4
COc1ccc(OCCn2cc(/C=N/NC(=O)c3ccncc3)c3ccccc32)cc1	0	-4	6	13	i	·	3	6
O=C(CSc1nnc(CNC(=O)c2cccs2)o1)NC1CCCC1	-8	-2	3	-19	·	0	7	1
Cc1ccc(NC(=S)N(CCCN2CCN(C)CC2)Cc2cccs2)cc1C	-7	1	11	-7	i	·	106*	6	eIF4H inh retest=39;PABP polyA inh retest=82*
O=S(=O)(Cc1ccccc1)NCCc1ccc(F)cc1	3	-2	12	-8	i	-8	0	-2
Cc1ccc(C(NC(=O)C(C)C)c2cc([N+](=O)[O-])c3cccnc3c2O)cc1 (stereo not drawn)	6	-1	144*	18	i	·	-18	8
